# Bioassay records as filed in PubChem BioAssay.
# FGF22 binding = binders of recombinant human FGF22 by thermal shift; Q9HCT0; SYPRO orange fluorescence; percent of sucrose octasulfate shift, DMSO zero; calls only at 9.99 µM; hit rate 1.5% among 340,000; AID 651658;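 active means melting point raised past a set limit in the mean and every replicate; three in four hits are not shown here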
# Target sequence (Q9HCT0 whole entry, looked up): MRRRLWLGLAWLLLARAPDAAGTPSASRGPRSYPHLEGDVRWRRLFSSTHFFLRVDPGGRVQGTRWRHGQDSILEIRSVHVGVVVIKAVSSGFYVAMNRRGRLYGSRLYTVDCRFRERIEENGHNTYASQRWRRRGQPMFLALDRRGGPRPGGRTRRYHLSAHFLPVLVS
# Ecoli rRNA inh = selective bacterial rRNA inhibition in E. coli; E. coli WT GFP vs humanized-ribosome RFP mutants, fluorescence, 24 h; hits give low values; DMSO median 0, no signal -100; GFP signal change (wild-type ribosome), % (test concentration not listed); hit rate 1.6% among 350,000; AID 720706;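 active means significant combined selectivity score with lowered wild-type GFP, culture density cut under 30%, mutant RFP and density less affected; inactive means any of these conditions unmet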; further: one replicate is shown; some compounds called inactive have numbers as strong as hits
# Ecoli rRNA inh OD600 = second read-out of Ecoli rRNA inh, no call of its own (marks repeat the call); OD600 change, %; measured here: OD600 growth;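 optical density of the mix in the first replicate; 0 = DMSO median and -100 = no signal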
# Ecoli rRNA inh RFP = further read-out of Ecoli rRNA inh, marked with its call; RFP signal change, %; measured here: RFP humanized mutant strains;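 first replicate; 0 = DMSO median and -100 = no signal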
# Starred values were filed as active, the others as inactive; i = inactive; + = active, no number; & = joins results of further samples. This is a subset (hit frequency here may not be typical).
Ecoli rRNA inh RFP	Compound	FGF22 binding	Ecoli rRNA inh OD600	Ecoli rRNA inh
-0.7	CO[C@H]1CN(C)C(=O)c2ccc(NC(=O)c3cnccn3)cc2OC[C@H](C)N(CCc2ccccc2)C[C@H]1C	i	-3	1
-0.8	COCC#Cc1cnc2c(c1)C(=O)N([C@@H](C)CO)C[C@@H](C)[C@H](CN(C)S(C)(=O)=O)O2	i	21	7
-3.4	COc1ccc(NC(=O)Nc2cccc3c2O[C@@H](CN(C)C(=O)Nc2ccccc2)[C@H](C)CN([C@@H](C)CO)C3=O)cc1	i	2	-5
-2.1	Cc1noc(C)c1NC(=O)Nc1ccc2c(c1)C(=O)N(C)[C@H]1CC[C@H](CC(=O)N[C@H]3CCN(Cc4ccccc4)C3)O[C@@H]1CO2	i	1	3
-1.3	Cc1noc(C)c1NC(=O)N(C)C[C@@H]1Oc2c(NC(=O)c3cnccn3)cccc2C(=O)N([C@@H](C)CO)C[C@H]1C	i	5	2
-1.7	C[C@H](O)C#Cc1ccc2c(c1)O[C@H](CN(C)Cc1ccccn1)[C@H](C)CN([C@@H](C)CO)S2(=O)=O	i	2	-1
2.0	COc1ccc(NC(=O)Nc2cccc3c2O[C@@H](CN(C)S(=O)(=O)c2ccc(F)cc2)[C@H](C)CN([C@H](C)CO)C3=O)cc1	i	-7	-3
-1.8	O=C(CCN1CCCCC1)NCC[C@H]1CC[C@@H](NC(=O)C2CCC2)[C@H](CO)O1	i	3	1
-1.0	Cc1noc(C)c1S(=O)(=O)Nc1ccc2c(c1)C(=O)N([C@H](C)CO)C[C@@H](C)[C@H](CN(C)Cc1ccncc1)O2	i	8	0
4.7	COc1cccc(S(=O)(=O)Nc2ccc3c(c2)OC[C@@H](C)N(Cc2ccccc2F)C[C@@H](C)[C@@H](OC)CN(C)C3=O)c1	i	-9	-1
2.9	COCC(=O)N(C)C[C@@H]1Oc2cc(C#Cc3ccccc3)ccc2S(=O)(=O)N([C@H](C)CO)C[C@@H]1C	i	-4	0
4.9	CO[C@@H]1CN(C)C(=O)c2ccc(NC(=O)c3ccccc3F)cc2OC[C@@H](C)N(CC2CCOCC2)C[C@H]1C	i	-8	-6
-2.5	COC(=O)C[C@H]1C[C@H]2c3cc(NC(=O)Nc4ccc(F)cc4)ccc3O[C@H]2[C@H](CO)O1	i	9	1
-1.0	CC(=O)Nc1ccc2c(c1)C(=O)N(C)[C@@H]1CC[C@@H](CC(=O)NCC3CC3)O[C@H]1CO2	i	7	1
-0.4	C/C=C/c1ccc([C@@H]2[C@@H](CO)N(C(=O)COC)[C@@H]2CNC(=O)CC)cc1	i	3	3
1.4	COc1ccc2c3c(n(C)c2c1)[C@@H](CO)N(C(=O)Nc1ccc(F)cc1)CC31CN(C(=O)Nc2c(C)noc2C)C1	i	-3	-4
0.2	C[C@H](CO)N1C[C@H](C)[C@H](CN(C)C(=O)C2CCC2)Oc2cc(C#CC3CC3)ccc2S1(=O)=O	i	0	1
-1.9	CCCC(=O)Nc1ccc2c(c1)C(=O)N(C)C[C@H](OC)[C@@H](C)CN(Cc1ccccn1)[C@H](C)CO2	i	2	2
1.6	C[C@@H]1CN([C@@H](C)CO)C(=O)Cc2cc(NS(=O)(=O)c3ccc(Cl)cc3)ccc2O[C@@H]1CN(C)S(=O)(=O)c1ccc(Cl)cc1	i	-6	1
-2.9	C[C@@H]1CN([C@H](C)CO)C(=O)c2cc(-c3cccnc3)cnc2O[C@@H]1CN(C)C(=O)NC1CCCC1	i	3	6
2.6	COC(=O)C[C@H]1CC[C@@H]2[C@@H](COc3ccc(NC(=O)Nc4cccc(C#N)c4)cc3C(=O)N2C)O1	+	-7	-15
1.7	C[C@@H]1CN([C@H](C)CO)C(=O)c2cc(C#Cc3cccc(F)c3)cnc2O[C@@H]1CN(C)C(=O)C1CCC1	i	7	2
-0.4	C[C@@H]1CCCCO[C@@H](CN(C)C)[C@H](C)CN([C@@H](C)CO)C(=O)c2cc(NS(=O)(=O)c3cn(C)cn3)ccc2O1	i	5	4
2.6	C[C@@H]1CN([C@@H](C)CO)C(=O)c2cccc(NC(=O)Nc3ccccc3)c2O[C@@H]1CN(C)S(=O)(=O)c1ccc(F)cc1	i	-7	-5
-1.0	C[C@H]1CN([C@@H](C)CO)C(=O)c2cc(C#CCN(C)C)cnc2O[C@H]1CN(C)Cc1ccc(F)cc1	i	12	4
-1.9	Cc1noc(C)c1S(=O)(=O)N(C)C[C@H]1Oc2ccc(NC(=O)CCCCCC(=O)Nc3ccccc3N)cc2CC(=O)N([C@H](C)CO)C[C@@H]1C	i	9	5
-1.2	C[C@@H]1CCCCO[C@H](CN(C)CC2CC2)[C@@H](C)CN([C@H](C)CO)C(=O)c2cc(NC(=O)Nc3ccc(F)cc3)ccc2O1	i	6	0
0.7	COc1ccc(NC(=O)N(C)C[C@@H]2OCCCC[C@H](C)Oc3ccc(NC(=O)Cc4ccccc4)cc3C(=O)N([C@H](C)CO)C[C@@H]2C)cc1	i	-3	-4
0.2	CO[C@H](CN(C)C(=O)c1ccccc1F)[C@H](C)CN([C@@H](C)CO)S(=O)(=O)c1ccc(F)cc1	i	12	1
3.9	COc1cccc(S(=O)(=O)N2CC3(CN(C(=O)Nc4cccc(F)c4)[C@H](CO)c4[nH]c5cc(OC)ccc5c43)C2)c1	i	-7	2
0.9	CCCc1cn(CC[C@@H]2CC[C@H](NC(=O)C3CCOCC3)[C@@H](CO)O2)nn1	i	0	2
-0.7	Cc1ccc(S(=O)(=O)N[C@@H]2C=C[C@@H](CC(=O)NC3CCCCC3)O[C@@H]2CO)cc1	i	1	0
5.5	Cc1ccc(S(=O)(=O)Nc2ccc3c(c2)C(=O)N([C@H](C)CO)C[C@H](C)[C@H](CN(C)S(=O)(=O)c2cccs2)O3)cc1	i	-4	0
-0.4	Cc1ccc(S(=O)(=O)Nc2ccc3c(c2)C(=O)N([C@H](C)CO)C[C@H](C)[C@H](CN(C)S(=O)(=O)c2ccc(Cl)cc2)OCCCC[C@@H](C)O3)cc1	i	1	4
-1.8	O=C(C[C@H]1CC[C@@H](NC(=O)c2ccc(F)cc2)[C@H](CO)O1)NCCc1ccncc1	i	2	1
-2.8	COc1cccc(NC(=O)Nc2ccc3c(c2)C(=O)N(C)[C@H]2CC[C@H](CC(=O)O)O[C@H]2CO3)c1	i	10	5
-0.8	O=C(C[C@@H]1CC[C@@H]2[C@H](COC[C@@H](O)CN2Cc2cc(F)cc(F)c2)O1)Nc1nccs1	i	-14	-6
2.0	COc1ccc(S(=O)(=O)Nc2ccc3c(c2)C(=O)N([C@H](C)CO)C[C@H](C)[C@H](CN(C)C(=O)CCC(F)(F)F)OCCCC[C@H](C)O3)cc1	i	-13	-2
1.1	C[C@H]1CN([C@@H](C)CO)C(=O)Cc2cc(NC(=O)CCN3CCOCC3)ccc2O[C@H]1CN(C)Cc1ccc(C(F)(F)F)cc1	i	-8	1
-0.4	C[C@H]1CN([C@@H](C)CO)S(=O)(=O)c2ccc(C#CC3(O)CCCC3)cc2O[C@@H]1CN(C)CC1CC1	i	-2	-3
0.0	COCC(=O)Nc1ccc2c(c1)C(=O)N(C)[C@@H]1CC[C@H](CC(=O)NCc3cccc(F)c3)O[C@H]1CO2	i	8	6
1.0	COc1ccc(-c2ccccc2C2Cc3nnccc3CN2C(=O)Nc2ccccc2)cc1 (stereo not drawn)	i	6	2
0.7	CN(c1ccc(NC(=O)CCc2cn(Cc3ccc(Br)cc3)c3ccccc23)cc1)c1ccccn1	i	9	5
2.6&-1.8	O=S(=O)(c1ccc(-c2ccccc2)cc1)N1[C@@H]2CNC[C@H]1C2c1ccc(-c2cccnc2)cc1 (stereo partly drawn)	i	-50&-49	-36&-39
-1.3	O=C(c1cccc(F)c1)N1C[C@@H]2[C@H](c3ccccc31)[C@H](CO)N2C(=O)c1ccccn1	i	9	0
-2.3	C[C@H](CO)N1C[C@H](C)[C@H](CN(C)C(=O)c2ccccn2)Oc2cc(C3=CCCC3)ccc2S1(=O)=O	i	-7	-4
1.9	C[C@@H]1CCCCO[C@H](CN(C)CC2CCCCC2)[C@@H](C)CN([C@H](C)CO)C(=O)c2cc(NC(=O)Nc3ccc(F)cc3)ccc2O1	i	-7	1
-2.5	COc1ccc(S(=O)(=O)Nc2ccc3c(c2)C(=O)N([C@@H](C)CO)C[C@@H](C)[C@@H](CN(C)C(=O)Nc2cccc4ccccc24)OCCCC[C@H](C)O3)cc1	i	-4	-1
-4.8	O=C([C@@H]1[C@@H](CO)[C@@H]2Cn3c(ccc(-c4ccc(F)cc4)c3=O)[C@@H]2N1Cc1cocn1)N1CCOCC1	i	3	1
22	O=C(Nc1ccccc1)N1CCCCN2[C@H](CO)[C@H](c3ccc(-c4ccccc4F)cc3)[C@H]2C1	i	-52	-18
-0.2	COc1ccc(CN(C)C[C@@H]2Oc3c(NC(=O)Nc4ccc5c(c4)OCO5)cccc3C(=O)N([C@H](C)CO)C[C@H]2C)cc1	i	-16	-5
2.3	C[C@H]1CN([C@@H](C)CO)C(=O)c2cc(-c3ccccc3)cnc2O[C@@H]1CN(C)C(=O)Nc1ccccc1F	i	-4	-3
-1.2	COCC#Cc1ccc2c(c1)O[C@@H](CN(C)C(=O)COC)[C@@H](C)CN([C@@H](C)CO)S2(=O)=O	i	8	3
-1.2	O=C(NCC[C@@H]1CC[C@@H](NS(=O)(=O)c2ccc(F)cc2)[C@@H](CO)O1)Nc1ccc(Cl)cc1	i	-79	-59
-0.8	COCC(=O)Nc1ccc2c(c1)OC[C@@H](C)N(C(=O)c1ccncc1)C[C@H](C)[C@@H](OC)CN(C)C2=O	i	1	1
0.4	CCCNC(=O)C[C@@H]1CC[C@@H]2[C@@H](COc3ccc(NC(=O)c4ccccc4)cc3C(=O)N2C)O1	i	-1	1
-2.2	Cc1noc(C)c1S(=O)(=O)N(C)C[C@@H]1Oc2ccc(NC(=O)Cn3cnnn3)cc2CC(=O)N([C@@H](C)CO)C[C@H]1C	i	4	2
19	COc1cccc(-c2cccc(-c3nc(C(=O)NCC(F)(F)F)cc4c3[C@@H](CCO)N([S@](=O)C(C)(C)C)C4)c2)c1	i	-34	-1
1.5	C[C@@H]1CN([C@@H](C)CO)C(=O)c2cccc(NC(=O)Nc3ccc(C(F)(F)F)cc3)c2O[C@H]1CN(C)S(=O)(=O)c1ccc(F)cc1	i	3	0
5.0	CO[C@H]1CN(C)C(=O)c2ccc(NC(=O)c3nc4ccccc4s3)cc2OC[C@@H](C)N(Cc2cncnc2)C[C@H]1C	i	-6	-8

# Looked up one by one from above (3):
Ecoli rRNA inh RFP	Compound	FGF22 binding	Ecoli rRNA inh OD600	Ecoli rRNA inh
5.0	CO[C@H]1CN(C)C(=O)c2ccc(NC(=O)c3nc4ccccc4s3)cc2OC[C@@H](C)N(Cc2cncnc2)C[C@H]1C	i	-6	-8
1.9	C[C@@H]1CCCCO[C@H](CN(C)CC2CCCCC2)[C@@H](C)CN([C@H](C)CO)C(=O)c2cc(NC(=O)Nc3ccc(F)cc3)ccc2O1	i	-7	1
0.4	CCCNC(=O)C[C@@H]1CC[C@@H]2[C@@H](COc3ccc(NC(=O)c4ccccc4)cc3C(=O)N2C)O1	i	-1	1

# Entries of single compounds from above. Values in the order: Ecoli rRNA inh RFP | FGF22 binding | Ecoli rRNA inh OD600 | Ecoli rRNA inh
# Entry for O=C(Nc1ccccc1)N1CCCCN2[C@H](CO)[C@H](c3ccc(-c4ccccc4F)cc3)[C@H]2C1 → 22 | i | -52 | -18
# Entry for COCC(=O)Nc1ccc2c(c1)OC[C@@H](C)N(C(=O)c1ccncc1)C[C@H](C)[C@@H](OC)CN(C)C2=O → -0.8 | i | 1 | 1
# Entry for C[C@H]1CN([C@@H](C)CO)C(=O)c2cc(-c3ccccc3)cnc2O[C@@H]1CN(C)C(=O)Nc1ccccc1F → 2.3 | i | -4 | -3
# Entry for Cc1noc(C)c1S(=O)(=O)N(C)C[C@@H]1Oc2ccc(NC(=O)Cn3cnnn3)cc2CC(=O)N([C@@H](C)CO)C[C@H]1C → -2.2 | i | 4 | 2
# Entry for COCC#Cc1ccc2c(c1)O[C@@H](CN(C)C(=O)COC)[C@@H](C)CN([C@@H](C)CO)S2(=O)=O → -1.2 | i | 8 | 3

# New compounds follow
Ecoli rRNA inh RFP	Compound	FGF22 binding	Ecoli rRNA inh OD600	Ecoli rRNA inh
2.7	CN(C)C(=O)C[C@H]1CC[C@H]2[C@H](COc3ccc(NC(=O)c4ccc(F)c(F)c4)cc3C(=O)N2C)O1	i	-17	-3
-1.1	C[C@@H]1CN([C@H](C)CO)C(=O)Cc2cc(NC(=O)Cc3ccccc3)ccc2O[C@H]1CN(C)C(=O)Nc1ccc2c(c1)OCO2	i	9	2
-0.5	CCOC(=O)C1=C(C(=O)OCC)C2N(Cc3ccc(C#N)cc3)c3ccccc3[C@@]23C[C@@H](C(=O)OC)N(S(=O)(=O)c2ccc(F)cc2)C3=N1 (stereo partly drawn)	i	14	10
1.5	CNC[C@H]1Oc2ccc(NS(=O)(=O)c3c(C)noc3C)cc2CC(=O)N([C@H](C)CO)C[C@@H]1C	i	9	1
-0.7	CN1C(=O)c2cc(NS(=O)(=O)c3ccccc3Cl)ccc2OC[C@@H]2O[C@H](CC(=O)O)CC[C@@H]21	i	3	2
-0.8	CC(C)NC(=O)N(C)C[C@@H]1OCCCC[C@H](C)Oc2ccc(NC(=O)Cc3ccccc3)cc2C(=O)N([C@H](C)CO)C[C@H]1C	i	-1	8
-1.4	C[C@@H]1CN([C@H](C)CO)C(=O)c2cc(NC(=O)CCN3CCOCC3)ccc2O[C@H]1CN(C)S(=O)(=O)c1ccc(Cl)cc1	i	10	0
